Screening results (PubChem BioAssay)
Vaccinia mCherry = vaccinia inhibition (mCherry reporter) | Vaccinia virus mCherry reporter infection, fluorescence; about a quarter of the inactives have no number | Potency, µM (series often up to 36.5 µM), for the others: top-dose activity change, negative = inhibition, most hits filed as inhibitors | 310,000 compounds, 0.63% hits | AID 720579; active = well fitted inhibition curve with a large enough effect; inconclusive = small, poorly fitted or top-dose-only effect; inactive = no such curve, though single readings can be large or run the other way; tested in A549 cells; note: nearly all actives have a fitted effect of over 35% in size; inactives centre near -10
VACV Venus inh = inhibitors of vaccinia virus (Venus reporter) | Vaccinia virus Venus reporter expression, fluorescence | Potency, µM (titrated, usually from 36.5 µM), for the others: at the top dose activity change, negative = inhibition, usual class: inhibitors | 330,000 compounds, 0.46% hits | AID 720580; active means well fitted inhibition curve with a large enough effect; inconclusive means small, poorly fitted or top-dose-only effect; inactive means no such curve, though single readings can be large or run the other way; tested in A549 cells; note: nearly all actives have a fitted effect of over 30% in size; inactives centre near -10
The depositor's hits bear a star; i = inactive; u = inconclusive; x = not tested or not shown; & = joins results of further samples; [ ] = remark or other dose. % is set by controls: 0 for no effect and ±100 for the full control effect; potency is the fitted concentration of half-maximal effect.

item	SMILES	Vaccinia mCherry	VACV Venus inh
1	Cc1ccc(NC(=O)CCC(=O)NNC(=O)NC2CCCCC2)c(C)c1	i	-4%
2	CCOC(=O)C1=C(C)NC2=C(C(=O)C(C(=O)OCC)C(c3ccccc3OC)C2)C1c1ccccn1 (centres undefined)	-15%	-14%
3	O=C(NCC1CCN(Cc2cccc(Cl)c2)CC1)C1CCCN(c2ncnc3c2nc2n3CCCCC2)C1 (centres undefined)	-27%[7.34 µM]	-21%[7.34 µM]
4	O=c1nc(N2CCCC2)nc(Nc2ccccc2)[nH]1	-12%	-6%
5	COc1ccc(C)c(NC(=O)NCCc2cnc[nH]2)c1	-20%	-10%
6	O=C(NCc1ccc(F)cc1)c1cccc2c1C(=O)c1ccc(N3CCC(Cc4ccccc4)CC3)cc1S2(=O)=O	i	98%[activator]
7	Cc1ccc(NC(=O)CSc2c3c(nc4ccccc24)CCCC3)cc1F	-28%	-18%
8	C=CCn1c(=NC(=O)c2cccs2)sc2cccc(OC)c21	i	-2%
9	Cc1ccc(NC(=O)CCC(=O)NN=Cc2ccc(C)o2)c(C)c1	39%[activator]	4%
10	Cc1ccc(NC(=O)CSc2ncccc2C(=O)Oc2ccccc2Cl)cc1Cl	-15%	-18%

Profiles as entered above. Screens in order: Vaccinia mCherry	VACV Venus inh
O=C(NCc1ccc(F)cc1)c1cccc2c1C(=O)c1ccc(N3CCC(Cc4ccccc4)CC3)cc1S2(=O)=O is entered as i	98%[activator]
Cc1ccc(NC(=O)CCC(=O)NN=Cc2ccc(C)o2)c(C)c1 is entered as 39%[activator]	4%

Returning to the listing, repeating the three entries before the break.
item	SMILES	Vaccinia mCherry	VACV Venus inh
8	C=CCn1c(=NC(=O)c2cccs2)sc2cccc(OC)c21	i	-2%
9	Cc1ccc(NC(=O)CCC(=O)NN=Cc2ccc(C)o2)c(C)c1	39%[activator]	4%
10	Cc1ccc(NC(=O)CSc2ncccc2C(=O)Oc2ccccc2Cl)cc1Cl	-15%	-18%
11	CN(C)c1ccc(CNCc2cccnc2)cc1	-5%[7.34 µM]	-6%[7.34 µM]
12	Cc1cc(C)cc(N(CC(=O)NCc2ccco2)C(=O)CCC(=O)Nc2nccs2)c1	-6%	-16%
13	COc1ccc(NC(=O)CSc2nc3[nH]c(=O)[nH]c(=O)c3s2)cc1OC	-14%	-7%
14	COc1ccc(Cn2c(CCC(=O)Nc3cccc(Cl)c3)nc3cccnc32)cc1	-21%	-9%
15	Cc1ccc(-c2onc(C)c2C)cc1S(=O)(=O)Nc1ccccn1	-13%	-17%
16	O=C(CN1C(=O)c2cccc([N+](=O)[O-])c2C1=O)OCC(=O)N1CCCCC1	-10%	-15%
17	Cc1ccc2scc(N3CCCCC3)c(=O)c2c1	-11%	-16%
18	O=C(NCC(=O)N(c1ccccc1)C(C(=O)NC1CCCC1)c1ccncc1)c1cccs1 (centres undefined)	i	14%
19	Cc1cccc(NC(=O)c2sc(-n3nc(C)c(Cc4ccc5c(c4)OCO5)c3C)nc2C)c1C	-13%	-13%
20	CCN(CC)C(=O)CSc1nc(C)cc(C)n1	-7%	6%
21	O=C(COCc1cc(-c2ccco2)on1)Nc1cccc(Cl)c1Cl	i	-14%
22	CC(C)(C)C(=O)Nc1nc(=S)ss1	i	-3%
23	Cc1ccc(C)c(NC(=O)Cn2ncc3c(C)n(Cc4ccc(F)cc4)c(C)c3c2=O)c1	-1%	-5%
24	CCN(Cc1ccncc1)Cc1ccc2c(c1)CN(C(=O)c1ccccc1)CCO2	-7%	5%
25	COc1cccc(OC(=O)c2cc3ccccc3oc2=O)c1	-16%	4%
26	Cc1noc(C)c1S(=O)(=O)N1CCC(C(=O)NC2CCCc3ccccc32)CC1 (centres undefined)	-3%	-15%
27	N#Cc1c(-c2ccccc2)nc(SCc2nc(N)nc(N3CCCCC3)n2)[nH]c1=O	-11%	-8%
28	Cc1cccc(C)c1NC(=O)CNC(=O)c1c(C)nn(-c2ccccc2)c1C	-2%	-14%
29	CCc1ccc(NC(=O)CSc2nc3ccsc3c(=O)n2C(C)CC)cc1 (centres undefined)	-15%	-26%
30	COc1ccc(C(=O)NCc2ccccc2CN2CCCC2)cc1S(=O)(=O)N1CCOCC1	-21%	-14%
31	Cc1ccc(Cn2ccnc2SCC(=O)Nc2ccc3c(c2)OCCO3)cc1	-1%	-10%
32	CCc1ccc2cc3c(cc2n1)C(=O)c1ccccc1-3	26%	-3%
33	CCCN1CCN(C(=S)Nc2ccc3nc(N4CCN(CC)CC4)cc(C)c3c2)CC1	-13%	-12%
34	CN(Cc1nccs1)C(=O)c1ccc(OC2CCN(CCc3ccccc3)CC2)cc1	i	-14%
35	O=C(N/N=C/c1ccc(OCC(=O)N2CCCCC2)cc1)c1ccccc1O	-17%	-8%
36	CC1=C(C(=O)OC(C)C)C(c2ccc(N(C)C)cc2)C2=C(CC(C)(C)CC2=O)N1 (centres undefined)	-30%	-21%
37	C/C(CC(=O)Nc1cc(C)ccn1)=N\NC(=O)c1ccncc1	-9%	-2%
38	Cn1c(CC(=O)Nc2ccccc2Cl)nnc1SCC(=O)Nc1nncs1	-23%	-3%
39	COc1ccc(C(C)(C)C)cc1NC(=O)CSc1ncn[nH]1	u	-16%
40	Cc1cc(C)c(Cn2c(=O)n(CCCC(=O)NCc3ccc4c(c3)OCO4)c(=O)c3sccc32)c(C)c1	-8%	-14%
41	CCOC(=O)c1sc(NC(=S)NC(=O)c2ccc(OC)cc2)nc1C	-10%	6%
42	CCC(=O)Nc1nnc(-c2ccccn2)o1	i	-9%
43	CN1CCCC(CNC(=O)c2cnn(-c3nccc(-c4cccs4)n3)c2C2CC2)C1 (centres undefined)	-12%	-1%
44	COc1ccc(Nc2ccc3cc(S(=O)(=O)N4CCCC4)ccc3n2)cc1OC	-17%	-7%
45	COc1ccc(OC)c(S(=O)(=O)Nc2c(C)cccc2C)c1	i	-2%
46	Cc1ccc(NC(=O)CCC(=O)NNC(=O)COc2cccc3ccccc23)c(C)c1	0%	14%
47	Cc1c(Cl)cccc1-n1ncc(C(=O)N2CCN(C)CC2)c1C1CCN(C(=O)OC(C)(C)C)CC1	3%	4%
48	CCCN=C1N(C)C[C@@H]2[C@@H]3C(=O)N(Cc4ccccc4)C(=O)[C@@H]3[C@](CC)(C(=O)OC)N12	-11%	-20%
49	CCCCNC(=O)CCC(=O)NNc1nc2ccccc2c2nc(-c3ccccc3)nn12	-12%&-5%	-4%&-8%
50	C=CCNc1nc(C(=O)OCC(=O)Nc2cccc(SC)c2)cs1	-4%	1%

Rewritten in transposed form: part of the list above.
(46) Cc1ccc(NC(=O)CCC(=O)NNC(=O)COc2cccc3ccccc23)c(C)c1
(47) Cc1c(Cl)cccc1-n1ncc(C(=O)N2CCN(C)CC2)c1C1CCN(C(=O)OC(C)(C)C)CC1

assay / compound | 46 | 47
Vaccinia mCherry | 0% | 3%
VACV Venus inh | 14% | 4%

(list continues)
item	SMILES	Vaccinia mCherry	VACV Venus inh
51	CC(C)NC(=S)n1cc(C(=O)c2cc(Cl)cc(Cl)c2O)cn1	-19%	-1%
52	O=C(NCCc1c[nH]c2ccccc12)c1[nH]c(C(F)(F)F)nc1-c1ccccc1	13%	-6%
53	CC(C)(C)OC(=O)N1CCC(c2c(C(=O)NCCc3ccccc3)cnn2-c2ccc(F)cc2F)CC1	-14%	-9%
54	COc1ccc(C2=CN(Cc3ccccc3)CCC2=O)cc1	-12%	-20%
55	COc1ccc(S(=O)(=O)N2CCC3CC2c2cc(-c4ccc5c(c4)OCO5)ccc23)cc1 (centres undefined)	i	-2%
56	CC(C(=O)NC1CCCC1)n1c(C2CCCC2)nc2ccccc21 (centres undefined)	8%	-10%
57	N#Cc1nc(COc2ccccc2)oc1N1CCCC1	-11%	-3%
58	COCCn1cc(C(=O)c2ccccc2OCC(=O)Nc2cc(C)on2)cc(C#N)c1=O	x	-9%
59	COc1cc(OC)cc(C(=O)N[C@H](C(=O)OCC(=O)N2CCc3ccccc32)C(C)C)c1	-6%	-25%
60	O=C(/C=C/c1ccc(F)cc1)NC(=S)N1CCN(Cc2ccccc2)CC1	-13%	-20%
61	C/C(=N/NC(=O)c1cccs1)c1ccco1	-3%	-7%
62	CC(=C/c1ccccc1)/C=C1/SC(N2CCOCC2)=NC1=O	-9%	-16%
63	COc1ccccc1OCC(=O)Nc1ccccc1C(=O)NCc1ccco1	x	-11%
64	O=C(CN1C(=O)c2ccccc2C1=O)OCC(=O)c1ccccc1	-11%	-11%
65	O=C(NCc1ccccc1)c1ccc(F)c(F)c1	-3%	-6%
66	CCOC(=O)C1=CCC(c2ccc(CC)cc2)N(S(=O)(=O)c2ccc(C)cc2)C1 (centres undefined)	i	-3%
67	COc1cc(CC2COC(=O)C2(O)Cc2ccc(O)c(OC)c2)ccc1O (centres undefined)	i	-18%
68	O=C(O)c1cc2ccccc2cc1Nc1ccccc1	-20%	-10%
69	COc1ccccc1C(=O)COC(=O)c1nc(Cl)ccc1Cl	i	-7%
70	COc1ccc(C(=O)CSc2nncn2C)cc1	x	-22%

5 records picked at random from those above, as already listed:
item	SMILES	Vaccinia mCherry	VACV Venus inh
10	Cc1ccc(NC(=O)CSc2ncccc2C(=O)Oc2ccccc2Cl)cc1Cl	-15%	-18%
59	COc1cc(OC)cc(C(=O)N[C@H](C(=O)OCC(=O)N2CCc3ccccc32)C(C)C)c1	-6%	-25%
20	CCN(CC)C(=O)CSc1nc(C)cc(C)n1	-7%	6%
16	O=C(CN1C(=O)c2cccc([N+](=O)[O-])c2C1=O)OCC(=O)N1CCCCC1	-10%	-15%
57	N#Cc1nc(COc2ccccc2)oc1N1CCCC1	-11%	-3%

The list goes on.
item	SMILES	Vaccinia mCherry	VACV Venus inh
71	O=C(c1ccccc1NS(=O)(=O)c1cccc(C(F)(F)F)c1)N1CCc2ccccc21	-15%	-2%
72	COc1ccc(CNC(=O)CCc2c(C)c3cc4c(C)coc4c(C)c3oc2=O)cc1OC	-20%	-24%
73	CCOC(=O)C1CCN(CCCSc2ccc(C)cc2)CC1	-3%	-6%
74	CCOC(=O)C=C(OC(=O)c1ccc(OC)cc1)c1ccccc1	-14%	-8%
75	CC(C)(C)OC(=O)N1CCC2(CC1)C(C#N)=C(N)OC1=C2C(=O)CCC1	-10%	-14%
76	O=C(Nc1cnccn1)c1cccnc1	-15%	-8%
77	CN(C)C(=O)CCCCCCCCC(=O)N(C)C	i	-1%
78	CCOC(=O)COc1ccc2c(c1)c(C(=O)OCC)c(C)n2CC	-1%	0%
79	CN(CCCNC(=O)CCc1cn(C)c2ccccc12)C1CCCCC1	-4%	-6%
80	COc1ccc(NC(=O)c2scc(S(=O)(=O)C(C)C)c2N)cc1	-14%	5%
81	O=C(CN1C(=O)NC2(CCc3ccccc32)C1=O)Nc1cc(C(F)(F)F)ccc1N1CCOCC1 (centres undefined)	u	u
82	COc1cccc(CNC(=O)CCCn2nc(C)n3c(cc4sccc43)c2=O)c1	-13%	-1%[7.34 µM]
83	CCNC(=O)C(=O)NCCc1ccc(Cl)cc1	-18%	-13%
84	CSC1=NCCN1C(=O)c1cccc(C(F)(F)F)c1	i	-15%
85	COc1ccc(CCNC(=O)CCc2c(C)nc3c(-c4ccc(F)cc4)c(C)nn3c2C)cc1OC	u	-17%
86	COCCCNC(=O)c1c(NC(=O)Cc2coc3c(C)c(C)ccc23)sc2c1CCCC2	-12%	8%
87	CC(OC(=O)C1=COCCO1)C(=O)NC1CCCCC1 (centres undefined)	i	-8%
88	O=C(NCc1ccc(F)cc1)C1CC(=O)N(C2CCCC2)C1 (centres undefined)	i	-2%
89	COc1cc(-c2noc(-c3cc4cc(F)ccc4oc3=O)n2)cc(OC)c1OC	-11%	-5%
90	Cn1c(SCC(=O)Nc2ccccc2F)nnc1-c1cccs1	1%	-5%
91	CCN1CCN(c2cc(C)c3cc(NC(=S)N4CCCCC4)ccc3n2)CC1	-21%	-21%
92	Cc1cc(C)cc(Oc2nc3ccccn3c(=O)c2/C=C(\C#N)c2nc3ccccc3s2)c1	u	u

Not a hit list; 0.82% or so of the library scored in one or more.
